# GLA inh pH 4.5: qHTS Assay for Inhibitors of Human alpha-Galactosidase at pH 4.5; purified enzyme, 4-MU-alpha-Gal fluorescence, pH 4.5; Alpha-galactosidase A (Homo sapiens), P06280; activity change, negative = inhibition, % at 105 µM; AID 1467, 2008; 230,000 tested, under 10 active; inconclusive = small, poorly fitted or top-dose-only inhibition, or a rising curve; inactive = flat fitted curve, though single readings scatter; no compound was filed as active;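 further: 0% = full activity with enzyme and -100% = basal without enzyme; dose as in the result columns while the protocol names 77 µM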
# Rango release inh: qHTS Assay for Inhibitors of RanGTP induced Rango (Ran-regulated importin-beta cargo) - Importin beta complex dissociation | 340,000 tested, 0.071% active | AID 540253, 2011 | Potency, µM (top dose mostly 46.1 µM), without a hit: at the highest dose activity change, negative = inhibition | Snurportin-1 (Homo sapiens) + GTP-binding nuclear protein Ran (Homo sapiens) + Importin … | Biochemical FRET Rango-importin beta, RanGTP-induced dissociation; active means falling FRET ratio curve, often poorly fitted, with flat reads before Ran was added; inconclusive means other falling curves, or compound fluorescence or quenching; inactive means flat or rising ratio curve;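 further: potency means the concentration at half of the fitted maximal effect; % of control where 0% means no effect; nearly all actives have a fitted effect of over 45% in size; -100% = wells without RanGTP and RCC1; the record marks most hits as doubtful in a second field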
#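 Compounds sat 5 min at room temperature with 0.1 uM Rango biosensor plus 0.25 uM importin beta, then FRET pre-read. RanGTP-RCC1 (0.6 uM Ran, 2mM GTP, 0.2 uM RCC1) added for 45 min, and the CFP/YFP post-read measured blocked complex dissociation.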
# Rango complex inh: qHTS Assay for Inhibitors of Rango (Ran-regulated importin-beta cargo) - Importin beta complex formation. Rango CFP/YFP FRET sensor + importin beta, 45 min. Potency, µM (doses to about 92.2 µM), inactives show top-dose inhibition of complex formation. 340,000 tested, 0.031% active. AID 540263, 2011; active = rising FRET ratio curve, often small or poorly fitted; inconclusive = mostly compound fluorescence or quenching in the first reads; inactive = flat curves in all reads;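 further: potency means the concentration at half of the fitted maximal effect; 0% = DMSO wells and 100% = buffer wells lacking importin beta; nearly all actives have a fitted effect of over 15% in size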
# Target sequence (Q14974 whole entry, looked up): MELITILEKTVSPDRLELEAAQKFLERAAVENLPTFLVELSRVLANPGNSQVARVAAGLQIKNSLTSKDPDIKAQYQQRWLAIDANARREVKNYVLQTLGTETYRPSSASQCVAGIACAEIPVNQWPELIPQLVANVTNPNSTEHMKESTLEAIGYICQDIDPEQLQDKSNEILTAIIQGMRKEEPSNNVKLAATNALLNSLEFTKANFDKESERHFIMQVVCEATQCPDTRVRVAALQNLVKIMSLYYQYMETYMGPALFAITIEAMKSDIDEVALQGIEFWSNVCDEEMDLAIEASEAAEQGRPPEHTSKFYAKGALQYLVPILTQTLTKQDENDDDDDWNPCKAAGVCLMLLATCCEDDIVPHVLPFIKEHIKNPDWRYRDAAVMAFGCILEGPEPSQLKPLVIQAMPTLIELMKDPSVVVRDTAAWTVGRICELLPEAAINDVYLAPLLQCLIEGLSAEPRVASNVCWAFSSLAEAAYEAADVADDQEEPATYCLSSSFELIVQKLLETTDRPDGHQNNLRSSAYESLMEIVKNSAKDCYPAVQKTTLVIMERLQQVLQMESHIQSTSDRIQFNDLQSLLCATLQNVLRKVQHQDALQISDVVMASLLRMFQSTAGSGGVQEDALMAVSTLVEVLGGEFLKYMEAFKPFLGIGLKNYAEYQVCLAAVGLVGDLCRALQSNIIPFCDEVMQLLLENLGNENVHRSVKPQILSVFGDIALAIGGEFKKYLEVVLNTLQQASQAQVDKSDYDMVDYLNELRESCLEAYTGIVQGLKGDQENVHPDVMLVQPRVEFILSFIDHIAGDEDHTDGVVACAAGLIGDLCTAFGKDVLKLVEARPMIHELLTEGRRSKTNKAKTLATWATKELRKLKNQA
#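 FRET biosensor Rango (snurportin 1 IBB between N-terminal EYFP and C-terminal Cerulean), 50 nM in PBS/1 mM DTT/0.02% Tween-20/0.1% BSA, preincubated 5 min RT with compound; 0.125 microM importin beta added, 45 min RT, CFP/YFP FRET ratio read.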
# miR-21 FLuc: qHTS Assay for Modulators of miRNAs and/orActivators of miR-21 | HeLa miR-21 FLuc reporter, luciferase, 48 h | Potency, µM (series often up to 38.3 µM), for inactives: at the highest dose reporter change, positive = more light | 340,000 tested, under 10 active | AID 2288, 2010; active = well fitted rising curve with a large enough effect; inconclusive = small, poorly fitted or top-dose-only effect; inactive = no such curve, though single readings can be large or run the other way;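 further: % of control where 0% means no effect; miR-21 action dims this reporter so a rising signal means less miR-21 action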
#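 HeLa miR-21-FLuc reporter line, endogenous miR-21; 2000 cells/well in DMEM/10% FBS; compound titration up to ~40uM final, 48 h, 37 degree Celsius; luciferase detection reagent, 15 min lysis, CCD luminescence.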
# Starred values were filed as active, the others as inactive; ? = inconclusive; . = no result given; & = joins results of further samples; [ ] = another dose, or the depositor's remark. Not all compounds are listed; rates above refer to the full screens.
# The line under a structure holds: GLA inh pH 4.5	Rango release inh	Rango complex inh	miR-21 FLuc
COC(=O)C1=C(c2ccc(-c3ccccc3)c(F)c2)C[C@@H]2CC[C@H]1N2C(=O)N1CCC(C)CC1
→ .	13.6%	0.4%	.
O=C1CN=C(c2ccc(Br)cc2)c2c(sc3c2CCCC3)N1CCN1CCCCC1
→ -4.1	2.3%	-2.5%	5.9%
CC1CNCCN1c1ccc(Cl)cc1 (stereo not given)
→ .	-1.4%	-1.6%	.
CSc1nc2ccc(C)cc2c(=O)n1-c1cccnc1
→ 2.6	-6.7%	-0.6%	-3.9%
CN1C2CCC1C(COC(=O)c1ccccc1)C(O)C2 (stereo not given)
→ -9.3	23.8%	1.5%	-1.8%
Cn1c(=O)cc(OCC(=O)N2CCC3(CC2)OCCO3)c2ccccc21
→ 5.4	9.1%	-0.7%	-3.3%
OCCNCCc1c[nH]c2ccc(OCc3ccccc3)cc12
→ .	-10.2%	4.4%	-15.6%
COc1ccc(-n2nc(C(=O)NCC(=O)N3CCC4(CC3)OCCO4)c3ccccc3c2=O)cc1Cl
→ .	0.0%	-2.0%	-26.3%
CCOC(=O)c1c(N)n(Cc2ccc(OC)cc2)c2nc3ccccc3nc12
→ ?	.	.	4.5%
COc1cc(OC)c(OC)cc1CNCCc1ccc2c(c1)OCO2
→ .	8.0%	-0.6%	-6.4%
COC(=O)C1=C(c2cccc(OCc3ccccc3)c2)C[C@@H]2CC[C@H]1N2C(=O)NCc1ccc(Br)cc1
→ .	14.3%	1.3%	.
O=C(Nc1ccc(Cl)c(C(F)(F)F)c1)NC1CC2CCCC(C1)N2Cc1ccccc1 (stereo not given)
→ -20.6	3.8%	3.4%	?
CC(C)c1onc(C(=O)N2CCC3(CC2)OCCO3)c1[N+](=O)[O-]
→ .	-0.6%	4.5%	3.6%
CN1CCN(c2ccc(C(N)=O)cc2[N+](=O)[O-])CC1
→ -4.3	-4.4%	-0.9%	-4.7%
C#CC1(O)CCC2C3CCC4=C/C(=N/OCC(=O)NCC(=O)NC(C(=O)O)C(C)C)CC[C@]4(C)C3CC[C@@]21C (stereo not given in full)
→ .	-17.3%	-5.2%	-23.1%
Nc1cc(C(=O)Nc2ccc(Cl)cc2)ccc1N1CC2CC(C1)c1cccc(=O)n1C2 (stereo not given)
→ .	-2.8%	1.1%	0.0%
COc1ccc2ccccc2c1CNCCc1ccccc1
→ .	-6.6%	0.1%	3.6%
COc1cccc(N2C(=O)/C(=C/c3ccc(C)o3)C(=O)NC2=S)c1
→ .	-16.1%	0.0%	-0.8%
FC(F)(F)c1cccc(NC2=NCCCS2)c1
→ .	10.9%	0.0%	-9.5%
O=C1CN=C(c2ccccc2)c2cc(Br)ccc2N1Cc1cc(=O)n2ccccc2n1
→ 2.5	-10.4%	-2.0%	-10.3%
COC(=O)C1=C(c2cccc(OC)c2OC)C[C@@H]2CC[C@H]1N2C(=O)NCc1ccc(C(F)(F)F)cc1
→ .	-2.8%	-0.4%	.
Cc1c(N=Cc2c(O)n(Cc3ccc(F)cc3)c(=O)[nH]c2=O)c(=O)n(-c2ccccc2)n1C
→ -2.0	-1.1%	-2.5%	-0.4%
C[C@@]12N[C@@H](Cc3ccccc31)c1ccccc12
→ .	0.6%&-19.4%	1.4%&8.2%	.
O=C(c1cccn2c(=O)c3ccc(Cl)cc3nc12)N1CCC2(CC1)OCCO2
→ 7.4	?	-1.0%	-1.7%
CN(C)CCc1nn[nH]n1
→ 10.3	-10.5%	3.9%	-7.4%
Cc1ccc(S(=O)(=O)N[C@@H](CCCCN)C(=O)CCl)cc1
→ 7.6	-21.8%	?	.
COc1ccc(C2SCC(=O)Nc3c2c(=O)[nH]n3C2CCCCC2)cc1 (stereo not given)
→ 1.0	15.4%	7.9%	-1.0%
C=CCN1C(=O)NC(=O)/C(=C/c2ccc(OC)c(CSc3ccccn3)c2)C1=O
→ 2.8	0.3%	0.2%	-9.9%
COP(=O)(Cc1ccc(C#N)o1)OC
→ -1.4	0.7%	-3.2%	0.2%
COc1cc(CN2CC3CC(C2)c2cccc(=O)n2C3)cc(OC)c1OC (stereo not given)
→ -1.2	6.7%	-8.9%	-0.1%

# The line under a structure holds: GLA inh pH 4.5	Rango release inh	Rango complex inh	miR-21 FLuc
CC(=O)Nc1ccc(C=C2C(=O)NC(=O)NC2=O)cc1
→ .	1.7%	-1.8%	.
CCOP(=O)(OCC)C(NC(=O)c1cccc(C)c1)C(Cl)(Cl)Cl (stereo not given)
→ -1.6	-4.1%	3.9%	-2.2%
CCC1(CC)C(=O)NC(=Nc2cccc(C(F)(F)F)c2)NC1=O
→ -0.5	-2.1%	-1.0%	0.3%
O=C1NC(=O)C(=Cc2ccccc2Oc2ccc(F)cc2)C(=O)N1
→ -0.1	0.5%	0.2%	-2.9%
Nc1ccc(N2CCN(Cc3ccccc3Cl)CC2)c(Cl)c1
→ -4.9	-13.7%	-7.5%	0.3%
N#CC1c2ccccc2-n2nncc2CN1S(=O)(=O)c1ccc(Cl)cc1 (stereo not given)
→ .	-4.6%	-4.0%	.
CCOc1ccc(C(C)=O)cc1Cc1c(O)[nH]c(=S)[nH]c1=O
→ .	-19.3%	0.7%	-2.2%
CNC(=O)Oc1cc2c(cc1C(C)(C)C)CCC2
→ .	-18.0%	-1.8%	.
CCn1c(O)c(N=Nc2cccc(S(=O)(=O)N3CCOCC3)c2)c(=O)n(CC)c1=S
→ 1.5	4.4%	2.6%	-0.5%
COc1ccc(-n2c(O)c(/C=C3\C=Nc4ccccc43)c(=O)[nH]c2=O)cc1
→ .	?	?	2.9%
C#CCNc1ccncc1S(=O)(=O)NC(=O)NC(C)C
→ 4.1	8.6%	3.3%	-6.3%
Cc1cc(OCC(=O)N[C@H](C(=O)O)c2ccccc2)c2c3c(c(=O)oc2c1)CCC3
→ .	3.2%	3.8%	1.7%
Cc1ccc(C2NC(=S)NC(c3ccc(C)cc3)C23C(=O)NC(=O)NC3=O)cc1 (stereo not given)
→ 0.6	-9.5%	-1.2%	0.3%
CCCOC(=O)c1c(N)n(Cc2cccs2)c2nc3ccccc3nc12
→ ?	?	?	14.4%
COc1ccccc1CN1CCCC(C(=O)c2ccccc2SC)C1 (stereo not given)
→ 4.5	-4.2%	-0.8%	14.7%
Cc1ccccc1C(=O)N1CC1C (stereo not given)
→ .	24.9%	0.2%	.
COc1cccc(-c2nc3ccc(N4CCN(C)CC4)cc3[nH]2)c1
→ 12.2	3.1%	0.7%	?
Cc1ccc(C(=O)Nc2nc3ccccc3[nH]2)cc1
→ .	-15.6%	?	?
O=C(CN1CC=C(c2ccccc2)CC1)NC(=O)NCc1ccccc1
→ -5.2[21.1 µM]	-11.3%	?	-2.8%
COc1cc(CNCCc2c[nH]c3ccccc23)cc(OC)c1
→ .	14.4%	3.6%	-3.8%
CN1C(=O)NC(=O)C(N=Nc2ccc(Cl)cc2)C1=O (stereo not given)
→ .	?	3.4%	.
CCOC(=O)C1CCN(/C=C2/C(=O)NC(=O)N(c3ccc(OCC)cc3)C2=O)CC1
→ -2.6	-1.2%	0.0%	-1.6%
CC(=O)OCC(=O)[C@H]1CC[C@H]2[C@@H]3CC[C@H]4C[C@H](O)CC[C@]4(C)[C@H]3C(=O)C[C@]12C
→ .	-7.9%	-4.6%	.
Cc1ncc(CN2CCCC(C(=O)c3sccc3C)C2)s1 (stereo not given)
→ 2.3	2.1%	-1.5%	4.2%
Cc1oc(-c2cccs2)nc1CSCC(=O)N1CCC2(CC1)OCCO2
→ 0.9	-5.3%	1.6%	-11.0%
Cn1cc(C(=O)OCC(=O)NC2(C#N)CCCCC2)c2ccccc21
→ .	24.6%	2.9%	.
O=C1N[C@H](Cc2ccccc2)C(=O)N2[C@@H]3[C@H](C[C@@H]12)c1ccccc1N3OOSc1ccccc1
→ .	7.4%	-5.1%	.
CCC(C)(C)c1ccc(O)cc1
→ .	-6.5%	?	.
O=C(Nc1cccc(Cl)c1)N1C[C@H]2C[C@@H](C1)c1cccc(=O)n1C2
→ .	3.4%	-0.9%	-0.7%
O=S1(=O)CC2(N3CCOCC3)CCCCC21 (stereo not given)
→ -1.7	-3.8%	1.7%	1.7%

# Ordered by heavy-atom count (lowest first): some entries from above.
# The line under a structure holds: GLA inh pH 4.5	Rango release inh	Rango complex inh	miR-21 FLuc
Cc1ccccc1C(=O)N1CC1C (stereo not given)
→ .	24.9%	0.2%	.
CCOc1ccc(C(C)=O)cc1Cc1c(O)[nH]c(=S)[nH]c1=O
→ .	-19.3%	0.7%	-2.2%
O=C1NC(=O)C(=Cc2ccccc2Oc2ccc(F)cc2)C(=O)N1
→ -0.1	0.5%	0.2%	-2.9%
CCCOC(=O)c1c(N)n(Cc2cccs2)c2nc3ccccc3nc12
→ ?	?	?	14.4%
O=C1N[C@H](Cc2ccccc2)C(=O)N2[C@@H]3[C@H](C[C@@H]12)c1ccccc1N3OOSc1ccccc1
→ .	7.4%	-5.1%	.

# Additional structures.
canonical_smiles	GLA inh pH 4.5	Rango release inh	Rango complex inh	miR-21 FLuc
Nc1ncc([N+](=O)[O-])s1	.	-0.6%	-2.9%	.
O=P(OCC(F)(F)C(F)F)(N1CCCCC1)N1CCCCC1	5.5	-11.0%	0.3%	-0.4%
COc1cccc2c1cc([N+](=O)[O-])c1c(C(=O)O)cc3c(c12)OCO3	-6.1&15.6	-0.4%	4.5%	.
Cc1ccc(CN2CCCC(C(=O)c3sccc3C)C2)o1 (stereo not given)	-1.6	-1.3%	4.8%	0.7%
Cc1ccc(/C=C2/C(=O)NC(=O)N(C)C2=O)cc1	-13.4	24.9%	-3.4%	-3.9%
CN1CCN(c2ccc3nccnc3c2)CC1	7.8	-0.5%	6.1%	-3.6%
Cc1ccc2cccc(OC(=O)N(C)c3ccccc3)c2n1	7.4	2.2%	0.7%	-14.7%
COCCO[C@H]1CCC2C3CC=C4C[C@@H](O)CC[C@]4(C)C3CC[C@@]21C (stereo not given in full)	.	-2.4%	1.4%	.
CC(=NCc1ccc2c(c1)OCO2)c1c(O)n(-c2ccccc2)c(=O)[nH]c1=O	-2.9	0.7%	4.5%	8.2%
C/C(=N\NC(=O)c1ccccc1O)c1c(O)n(C2CCCCC2)c(=O)[nH]c1=O	.	5.4%	1.1%	-11.6%
Clc1ccc2c(c1)C(c1ccccc1Cl)=NCc1nnc(N3CCN(CCSc4ccccc4)CC3)n1-2	-4.5	2.1%	-3.3%	-1.1%
CCCNC(=O)N1[C@H]2CC[C@@H]1C(C(=O)OC)=C(c1cccc(C#N)c1)C2	.	-16.6%	0.4%	.
O=C(CN1CC=C(c2ccccc2)CC1)Nc1cc(Cl)ccc1Cl	-8.4	-16.3%	?	-6.7%
Cc1ccc(-n2c(O)c(C=NCc3ccco3)c(=O)[nH]c2=S)cc1C	-0.1	?	?	-2.3%
CC(c1ccc(F)cc1)n1cc(C(=O)NCc2ccc3c(c2)OCO3)nn1 (stereo not given)	5.0	-10.7%	0.8%	-15.4%

canonical_smiles	GLA inh pH 4.5	Rango release inh	Rango complex inh	miR-21 FLuc
COc1cc2c(c(OC)c1)C(=O)OC(C)CCCC(=O)CCCCC2 (stereo not given)	.	12.2%	-3.2%	-1.4%
C=CCn1c(O)c(C(CC)=NCc2ccco2)c(=O)[nH]c1=O	-14.5	12.2%	0.5%	14.6%
COc1ccc(S(=O)(=O)NCc2ccc(C(=O)N3CCC4(CC3)OCCO4)cc2)cc1	-5.7	-5.4%	-2.4%	1.6%
CCN1C(=O)NC(=O)/C(=C\c2cn(CC(=O)N3CCCC3)c3ccccc23)C1=O	.	23.9%	1.3%	0.2%
CCN(CC)c1ccc(N=Cc2c(O)n(-c3ccc(OC)cc3)c(=O)[nH]c2=O)cc1	2.2	?	?	1.0%
